Screening results: PubChem BioAssay, PCMD
Biofilm kill mix: mixtures killing C. albicans biofilm. C. albicans biofilm persisters + clotrimazole, fluorescence viability; primary screen in compound mixtures of four per well. hit rate 0.02% among 120,000. inhibition, % at 7.6 µM;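 active = inhibition above 30.3% in the primary screen of four-compound pools, then above 30% when the compound was retested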;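 note: compounds exposed to preformed 24 h biofilms for 48 h; the number belongs to the whole pool; some results filed as inactive read as strong as hits; inactives centre near 12; 0% = biofilm with clotrimazole alone and 100% = kill control; retested singly at about 60 µM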
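Test system: C. albicans biofilms. Buffer or medium: RPMI/MOPS medium, pH 7.0. Timing: 48 h compound exposure at 37 °C. Technique: Alamar Blue fluorescence. Evaluation: percent inhibition of biofilm viability.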
* hit, by the source's call. This is a subset (hit frequency here may not be typical).

compound	Biofilm kill mix
CC(=O)Nc1ccc(NC(=O)C2CCN(c3ccc(C(F)(F)F)cn3)CC2)cc1	13
OC1(c2ccc(Cl)cc2)CCN(Cc2cn[nH]c2-c2ccccc2)CC1	22
CCc1ccc(OCC(=O)N/N=C\c2ccco2)c([N+](=O)[O-])c1	-9
O=C(c1ccc(Cl)cc1)N1CCN(c2ccc(F)cc2)CC1	10
NNc1ccc2nnc(C(F)(F)C(F)(F)C(F)(F)F)n2n1	9
CCSc1ccc(-c2nn(-c3ccccc3)cc2/C=C(/C#N)C(=O)NC)cc1	8
O=C(Cc1cccs1)NCCc1csc(-c2ccccc2)n1	29
CCN1C(=O)/C(=C/c2nc3ccccc3c(=O)[nH]2)c2ccccc21	15

Reprinted from the part before: 4 compounds, then new ones.
compound	Biofilm kill mix
NNc1ccc2nnc(C(F)(F)C(F)(F)C(F)(F)F)n2n1	9
CCSc1ccc(-c2nn(-c3ccccc3)cc2/C=C(/C#N)C(=O)NC)cc1	8
O=C(Cc1cccs1)NCCc1csc(-c2ccccc2)n1	29
CCN1C(=O)/C(=C/c2nc3ccccc3c(=O)[nH]2)c2ccccc21	15
O=[N+]([O-])c1ccc(Oc2cccc3cccnc23)c([N+](=O)[O-])c1	21
C/C=C/c1ccc(OCC(=O)O)c(OC)c1	23
OCCNc1c2ccccc2nc2c(F)c(F)c(F)c(F)c12	15
CCN(CC(=O)NC(C)C)C(=O)C(CCSC)NC(=O)c1ccccc1OC (configuration not stated)	20
O=C(Nc1ccccc1Cl)Nc1cccnc1Cl	21
COc1ccc(NS(=O)(=O)c2ccc(-c3n[nH]c(=S)n3Cc3ccccc3)cc2)cc1	18
O=C1C[C@@H](c2ccc(O[C@@H]3O[C@H](CO)[C@@H](O)[C@H](O)[C@H]3O)cc2)Oc2cc(O)ccc21	7
O=C(O)c1ccc(S(=O)(=O)N(Cc2cccs2)CC2CCCO2)cc1 (configuration not stated)	10
Cc1cccc(Nc2nnc(SCC(=O)Nc3ccc(C(=O)O)cc3)s2)c1	13
Fc1ccc(C(c2nnnn2Cc2cccs2)N2CCN(c3ccccc3)CC2)cc1 (configuration not stated)	7
COC(=O)CCCC1=CC2=CC(=O)C(C)(OC(=O)c3cccs3)C(=O)C2=CN1Cc1ccco1 (configuration not stated)	0
NC(=O)N/N=C/c1cccc(OCc2ccc(F)cc2)c1	-8
CCOCCCNC(=O)C1CCCN1C(=O)Nc1ccccc1[N+](=O)[O-] (configuration not stated)	16
CC1(C(=O)NCCN2CCOCC2)C=CCN1C(=O)c1ccccc1 (configuration not stated)	18
Cc1ccc(/C=N/NC(=O)Cn2nnc(N)n2)cc1	21
O=C(CN1CCN(c2cccc(Cl)c2)CC1)Nc1ccc([N+](=O)[O-])cc1C(=O)Nc1ccccc1F	21
CC(C)(C)NCCOCCOc1ccccc1-c1ccccc1	28
CCOC(=O)C(NC(=O)c1cccc(Cl)c1)(OCc1ccc(F)cc1)C(F)(F)F (configuration not stated)	13
Cn1c(=O)c2c(nc(SCC(=O)N3CCCCCC3)n2C)n(C)c1=O	13
O=C(O)c1cc(Cl)c(Cl)cc1C(=O)Nc1cccnc1	8
COc1ccc([C@H](C)NC[C@H](O)c2ccc(O)c(NC=O)c2)cc1	6
O=C(c1ccc(S(=O)(=O)N2CCCCC2)cc1)N(c1ccccn1)C1CCCCC1	9
Nc1cccc2c1C(=O)N(C(=O)/C=C/c1cccc(Br)c1)C2=O	9
Cc1cc(OCc2cn3cccnc3n2)ccc1Cl	4
CC1(C)C2CCC1(C)C(OC(=O)c1ccc(O)cc1)C2 (configuration not stated)	11
CN(CCn1ccnc1)Cc1cn(-c2ccccc2)nc1-c1ccc2c(c1)OCO2	3
Cc1cc([N+](=O)[O-])nn1CC(=O)N1CCCc2ccccc21	11
CN(C)S(=O)(=O)c1ccc(NC(=O)CNc2cc(S(=O)(=O)N3CCCC3)ccc2OCC(F)(F)F)cc1	10
O=C(CN1CCN(Cc2ccccc2)CC1)Nc1ccc(S(=O)(=O)N2CCOCC2)cc1	6
CCC1CCCCN1C(=S)NCc1ccccc1 (configuration not stated)	17
CC1(C)CC(NC(=O)CSc2ccccc2)CC(C)(C)N1	6
O=Cc1cn[nH]c1-c1cccc([N+](=O)[O-])c1	16
COc1ccc(S(=O)(=O)CC2(O)CCN(C(=O)C(C)(C)C)CC2)cc1	16
CCN(CC)CCNC(=O)c1cc(-c2ccco2)nc2ccccc12	12
CC(=O)Nc1ccc(S(=O)(=O)N[C@@H](C)C(=O)OCc2ccc(Cl)cc2)cc1	22
O=C(c1ccc(N2CCOCC2)cc1[N+](=O)[O-])N1CCOCC1	7
CC(=O)Nc1ccc(N2CCc3c(C)c(C#N)c4nc5ccccc5n4c32)cc1	5
O=C(NC(=S)Nc1ccc(N2CCOCC2)cc1)c1ccccc1	5
O=C(COC(=O)CCCN=C1NS(=O)(=O)c2ccccc21)NC(=O)NC1CCCC1	17
Cc1ccc(S(=O)(=O)N/N=C/c2cc([N+](=O)[O-])ccc2O)cc1[N+](=O)[O-]	16
COc1ccc(C(OC(=O)c2ccco2)C(=O)NC(C)(C)C)cc1 (configuration not stated)	13
O=C(/C=C/c1ccccc1)N/C(=C\c1ccco1)C(=O)O	6
C=CCNC(=O)c1ccc(-c2ccc([N+](=O)[O-])cc2)o1	9
CC1(C)CN=c2s/c(=C\c3ccc(Cl)cc3)c(=O)n2C1	16
Cc1cc(/C=C2\SC(=S)NC2=O)c(C)n1-c1ccc(O)cc1	19
CCCOC(=O)c1ccc(NC(=O)/C=C/c2cccs2)cc1	5
COC(=O)CCC(=O)NC(=S)Nc1sc(C)c(C)c1C(N)=O	16
CCOC(=O)c1c(N=CN(C)C)c2cc([N+](=O)[O-])cnc2n1C	9
Cc1ccc(-c2cc(C(=O)N/N=C/C=C/c3ccccc3)n[nH]2)s1	16
CCC(C)(NC(=O)Cc1c[nH]c2ccccc12)C(=O)NC1CCCCC1 (configuration not stated)	9
CN(C(=S)Nc1ccc(Oc2ccccc2)cc1)c1ccc(O)cc1	17
CCOC(=O)C1(Cc2ccccc2C(F)(F)F)CCN(C2CCN(C(C)C)CC2)CC1	15
Cc1ccccc1NC(=S)N(CCN(C)C)C(C)c1cccnc1 (configuration not stated)	11
N/C(=N\N=C\c1cccc([N+](=O)[O-])c1)c1nonc1N	15
O=C(NC(=S)Nc1cnc2ccccc2c1)c1ccccc1	-7
NC(=O)c1cccc2cc3ccccc3cc12	10

Later entries:
compound	Biofilm kill mix
O=C(O)c1ccc(S(=O)(=O)NC2CC2)cc1	9
CCOCCOC(=O)c1[nH]c2c(c1C)C(=O)CC(c1cccs1)C2 (configuration not stated)	17
COc1ccc(S(=O)(=O)N2CCN(C3CCCCCCC3)CC2)cc1	9
CCOC(=O)N/N=C(\c1ccccc1)C(O)c1ccccc1 (configuration not stated)	23
COC(=O)c1ccccc1NC(=O)Cc1ccccc1OC	18
COc1ccc(C(=O)NC(=S)SCC(=O)O)cc1	14
CN1CCN(C2=Cc3ccccc3Sc3cc(F)c(F)cc32)CC1	12
COC(=O)C1=C(C(=O)OC)[C@@H]2N(Cc3ccccc3)c3ccccc3[C@@]23C[C@@H](C(=O)OC)N(C(=O)COCc2ccccc2)C3=N1	23

Continued; it opens with the 6 that closed the last part.
compound	Biofilm kill mix
COc1ccc(S(=O)(=O)N2CCN(C3CCCCCCC3)CC2)cc1	9
CCOC(=O)N/N=C(\c1ccccc1)C(O)c1ccccc1 (configuration not stated)	23
COC(=O)c1ccccc1NC(=O)Cc1ccccc1OC	18
COc1ccc(C(=O)NC(=S)SCC(=O)O)cc1	14
CN1CCN(C2=Cc3ccccc3Sc3cc(F)c(F)cc32)CC1	12
COC(=O)C1=C(C(=O)OC)[C@@H]2N(Cc3ccccc3)c3ccccc3[C@@]23C[C@@H](C(=O)OC)N(C(=O)COCc2ccccc2)C3=N1	23
CC(=O)N1CSCC1C(=O)NNS(=O)(=O)c1cccc(C(F)(F)F)c1 (configuration not stated)	5
Cc1ccc(C)c(S(=O)(=O)NCC(=O)NCc2ccco2)c1	8
Cc1nnnn1/C(=C\c1ccccc1)C(=O)OCC(=O)N1CC2(C)CC1CC(C)(C)C2 (configuration not stated)	17
O=C(Nc1ccc2ccccc2c1)N1CCCN(CCOc2ccccc2)CC1	25
Cc1ccc(C)c(NC(=O)Cn2c(=O)n(-c3ccc(CC(=O)NCC4CCCO4)cc3)c(=O)c3ccccc32)c1 (configuration not stated)	13
CCOc1ccc(-c2nc[nH]c2[N+](=O)[O-])cc1	25
COc1ccccc1Nc1nc(-c2ccccc2O)nc2ccccc12	25
N#Cc1ccc(-c2nc3cc(C#N)c(C#N)cc3nc2-c2ccccc2)cc1C#N	11
Cc1ccc2cc(CCNC(=O)c3cc4ccccc4o3)c(=O)[nH]c2c1C	5
CCCCn1nnnc1NCc1ccc(C)s1	14
NC(=O)C1(C(N)=O)OC1c1ccc(Cl)cc1Cl (configuration not stated)	11
COc1ccc(C(=O)N/C(=C/c2ccco2)C(=O)NC2CCS(=O)(=O)C2)cc1 (configuration not stated)	14
CC1(c2ccc([N+](=O)[O-])cc2)CC(C)(C)N(C(=O)c2ccccc2)c2ccccc21 (configuration not stated)	-12
CC(C)c1ccccc1NC(=S)NC(C)c1ccccc1 (configuration not stated)	13
Cc1ccc(C(=O)CSc2ccc(-c3ccncc3)nn2)cc1	10
C[C@H](NC(=O)c1ccccc1Cl)C(=O)NCc1cccs1	3
CC(=O)Nc1ccc(C(=O)N/C(=C/c2ccccc2)C(=O)Nc2cccc(C(=O)O)c2)cc1	5
O=C(NCc1ccco1)C(=O)c1cn(CC(=O)N2CCCCCC2)c2ccccc12	30
Cc1cccc(NC(=S)Nc2c(C)n(C)n(-c3ccccc3)c2=O)c1C	8
Cc1ccc(-c2nc(C)c(C(=O)O)s2)cc1	21
O=C(NCc1ccco1)c1ccc2ccccc2n1	6
O=C(/C=C/c1cccc(F)c1)N(c1ccccn1)C1CCCCC1	5
CCCCSc1ncnc2[nH]ncc12	3
O=C(CNc1n[nH]c(=O)[nH]c1=O)N/N=C/C=C/c1ccccc1	14
COc1ccc2c(c1O)C(=O)c1ccccc1C2=O	14
CCC12CN(C(=O)c3ccc(C)cc3)CC(CC)(CN(C(=O)c3ccc(C)cc3)C1)C2=O	16
CCCCc1nc(NCc2ccccc2)c(C#N)c2c1CCCC2	14
CCOCc1nnc(NC(=O)c2cc(C(=O)OC)cc([N+](=O)[O-])c2)s1	15
CCCOc1ccc(NC(=O)CC2C(=O)N(Cc3ccccc3)C(=S)N2Cc2cccs2)cc1 (configuration not stated)	18
COc1ccc(C(C)NC(=O)c2ccccc2Cl)cc1OC (configuration not stated)	18
O=C(CCc1nnc(CCCCc2ccccc2)o1)N1CCN(CCO)CC1	4
O=C(c1cccs1)N1CCc2ccccc2C1	20
CCCOc1ccc(/C=N/Nc2ccccc2[N+](=O)[O-])c(O)c1	9
COC(=O)C1=C(C)Nc2nc3ccccc3n2C1c1ccccc1F (configuration not stated)	17
C[C@H](NC(=O)[C@@H]1CCC(=O)N1Cc1ccco1)c1ccccc1	11
COc1ccc(Nc2ncnc3sc(-c4ccccc4)cc23)c(OC)c1	10
CCOC(=O)c1sc2nc(C)nc(NCCc3ccccn3)c2c1C	9
CC(C)NCC(O)COc1ccc2c(c1)CCC2 (configuration not stated)	20
CCc1c(C)nc2c(C)cccc2c1SCCC#N	23
Cc1cc(C)cc(Nc2c(F)c(F)c(F)c(F)c2C(=O)O)c1	5
COc1ccc(Br)cc1S(=O)(=O)Nc1cccc(C)n1	13
S=C(NCCCn1ccnc1)Nc1cccc(Cl)c1	13
O=C(NCc1nnc(SCC(=O)N2CCCc3ccccc32)n1-c1ccccc1)c1cccc2ccccc12	16
COc1cc(Cl)c(CC(=O)c2c[nH]c3ccccc23)cc1OC	13
CC(C)CNC(=S)N1CCC(NC(=O)c2ccco2)CC1	-9
Cc1ccc(CN2CCSc3ccc(C(=O)NCc4ccco4)cc32)cc1	0
O=C(CSc1n[nH]c(-c2ccccc2Br)n1)NCCN1C(=O)CSC1=O	7
COc1cc(SC)ccc1C(=O)N1CCN(c2ccccc2OC)CC1	9
COc1ccc(NC(=S)Nc2cccc(C(C)=O)c2)cc1OC	4
CC(C)(C)C(=O)NC(=S)Nc1ccccc1C(=O)NC1CCCCC1	9
Fc1ccc(-n2ncc3c(SCc4cccnc4)ncnc32)cc1	14
O=C(CSc1nc2ccccc2s1)NCCOc1ccccc1	16
CS(=O)(=O)N1N=C(c2ccco2)CC1c1ccccc1Cl (configuration not stated)	19
Cc1cc2c(sc3c(C)ccc(C)c32)c(C)n1	0
CSC1=N/C(=C\c2ccccc2Cl)C(=O)N1N(C)C	16
COc1ccc(NC(=O)c2ccc(-c3ccccc3Cl)o2)cc1	17
CC1(C)CC(=O)C2=C(C1)OC(/N=C/N1CCCC1)=C(C#N)C2c1ccccc1 (configuration not stated)	23
